Biofilm kill mix – clotrimazole potentiators killing C. albicans biofilm, primary screen, 4-compound mixtures. C. albicans biofilm persisters + clotrimazole, fluorescence viability; primary screen in compound mixtures of four per well. inhibition, % at 7.6 µM. hit rate 0.02% among 120,000;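 active = inhibition above 30.3% in the primary screen of four-compound pools, then above 30% when the compound was retested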;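 also: compounds exposed to preformed 24 h biofilms for 48 h; the number belongs to the whole pool; some results filed as inactive read as strong as hits; inactives centre near 12; 0% = biofilm with clotrimazole alone and 100% = kill control; retested singly at about 60 µM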
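Test system: C. albicans CAF4-2 wild-type biofilms; buffer or medium: RPMI/MOPS medium, pH 7.0; schedule: 24 h biofilm formation, then 48 h compound exposure, 37 °C; detection: Alamar Blue fluorescence; measure: percent inhibition of biofilm viability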
Active calls of the source: *.

Start of the data: the first 4 entries, to show the layout:
SMILES	Biofilm kill mix
C/C(=N\OCC(=O)Nc1ccccc1C(=O)O)c1cccs1	7
CCc1ccc(CNC(=O)C2CCN(S(=O)(=O)N3CCC4(CC3)OCCO4)CC2)cc1	6
C/C(=N\NC(=O)Cn1cc([N+](=O)[O-])cn1)c1ccc(O)cc1	6
O=C1CCC(C(=O)OCc2cc(=O)oc3ccc4ccccc4c23)=NN1	22

This part in full, repeating the preview:
SMILES	Biofilm kill mix
C/C(=N\OCC(=O)Nc1ccccc1C(=O)O)c1cccs1	7
CCc1ccc(CNC(=O)C2CCN(S(=O)(=O)N3CCC4(CC3)OCCO4)CC2)cc1	6
C/C(=N\NC(=O)Cn1cc([N+](=O)[O-])cn1)c1ccc(O)cc1	6
O=C1CCC(C(=O)OCc2cc(=O)oc3ccc4ccccc4c23)=NN1	22
Cc1ccc(NC(=O)CN2CCC(C(N)=O)CC2)cc1[N+](=O)[O-]	19
NC1=NS(=O)(=O)NC1c1cccc(F)c1 (centres undefined)	14
COc1cccc(-n2cc(CN(C)Cc3nc(Cc4ccccc4)no3)cn2)c1	13
CCOC(=O)c1c(C)c(C(=O)Nc2ccc(F)cc2)c(C)n1C	22
O=C(CCC(=O)N(c1ccc(F)cc1)C(C(=O)NC1CCCC1)c1ccncc1)Nc1cccnc1 (centres undefined)	8
O=C(O)CCn1c(=S)n(CCC(=O)O)c2ccccc21	15
CC(=O)c1ccc2c(c1)C1C=CCC1C(c1ccc(S(=O)(=O)N3CCOCC3)cc1)N2 (centres undefined)	16
COc1ccc(C2=C(CC(=O)O)C(=O)CC2)cc1	12
CCCN1C2CCCC1CC(NC(=O)C1CCCCC1)C2 (centres undefined)	-12
CC(C)N1CCC(N2CCN(C3CCCCCC3)CC2CCO)CC1 (centres undefined)	17
CC(=O)N1CCN(C2=NC(=O)/C(=C\c3cccs3)S2)CC1	18
CCOC(=O)c1ccc(NC(=O)c2nc[nH]c2C(=O)N[C@@H](CC(C)C)C(=O)OC(C)(C)C)cc1	13
O=[N+]([O-])c1cccc(/C=N/NS(=O)(=O)c2ccccc2)c1	3
COc1cc(/C=C2\SC(=S)N(NC(=O)c3cccnc3)C2=O)ccc1O	17
COc1ccc(C=Nc2ccc3[nH]ncc3c2)c(O)c1	24
CCN(CC)S(=O)(=O)c1ccc(C(=O)NCc2ccc3[nH]c4c(c3c2)CCCC4)cc1	10
C=CCOC(=O)C1=C[C@H](c2csc3ccccc23)[C@@H](CCCO)[C@H](OCC)O1	12
Cc1cc(C(=O)CSc2nc3ccccc3[nH]2)c(C)n1Cc1ccco1	16
CCC(CC)C(=O)Nc1ccc(Nc2ccccc2)cc1	6
CO[C@@]1(NC(=O)CSCC#N)C(=O)N2C(C(=O)O)=C(CSc3nnnn3C)CS[C@@H]21	16
Cc1nc(-c2ccc(C(=O)N3CCCC3)cc2)cs1	8
CCCCCC(=O)Nc1cccc(C2=NOC3(C2)C[C@H](C(N)=O)N(C(=O)CCCCC)C3)c1 (some centres undefined)	15
Cc1cc2nc3c(=O)n(Cc4ccccc4)c(=O)[nH]c3nc2cc1N	20
CCOC(=O)C(NS(=O)(=O)c1ccc(C)cc1)(C(F)(F)F)P(=O)(OCC(C)C)OCC(C)C (centres undefined)	26
COc1ccc(C2c3ccc(O)cc3Oc3ncn4nc(-c5ccco5)nc4c32)cc1OC (centres undefined)	19
COc1ccc(CCNC(=O)COc2ccc(S(=O)(=O)NC3CCCCC3)cc2Cl)cc1OC	13

Reformatted in markdown: 5 of the compounds above.
| compound | Biofilm kill mix |
| --- | --- |
| C=CCOC(=O)C1=C[C@H](c2csc3ccccc23)[C@@H](CCCO)[C@H](OCC)O1 | 12 |
| Cc1cc(C(=O)CSc2nc3ccccc3[nH]2)c(C)n1Cc1ccco1 | 16 |
| CCC(CC)C(=O)Nc1ccc(Nc2ccccc2)cc1 | 6 |
| CO[C@@]1(NC(=O)CSCC#N)C(=O)N2C(C(=O)O)=C(CSc3nnnn3C)CS[C@@H]21 | 16 |
| Cc1nc(-c2ccc(C(=O)N3CCCC3)cc2)cs1 | 8 |

The listing continues:
SMILES	Biofilm kill mix
O=C(NCCN1CCOCC1)Nc1ccc(F)cc1	3
Cc1ccc(O/C=C2\OC(=O)c3ccccc32)cc1	13
CC(NC(=S)NCc1ccccc1)C12CC3CC(CC(C3)C1)C2 (centres undefined)	4
Cc1ccc(NS(=O)(=O)c2ccc(N/N=C/c3ccccc3OCC(=O)O)c([N+](=O)[O-])c2)c(C)c1	13
COC(=O)CN=Cc1c(C)[nH]n(-c2ccccc2)c1=O	19
COc1cccc(C(=O)N2CCCC(CCC(=O)NCc3ccc(F)c(F)c3)C2)c1 (centres undefined)	13
COc1ccc(C2C(C(=O)Nc3cccnc3)=C(C)Nc3nc(-c4cccs4)nn32)cc1 (centres undefined)	13
Cc1cc(N2CCCCC2C)nc(-c2ccccc2O)n1 (centres undefined)	17
CN(CCc1ccccn1)C(=O)Nc1cccc(Cl)c1	8
Cc1cc(C)cc(NC(=O)COC(=O)CCCNC(=O)c2ccc(Cl)cc2)c1	11
Cc1ccc(C2=NC3(CCCCC3)NC2=S)cc1	13
O=C(CCc1ccccc1)NNC(=O)c1ccc(NC(=O)c2ccccc2)cc1	11
O=C(Cc1ccccc1)NCCSC1CCCCC1	18
O=C(Nc1ccc(Oc2cccnc2)cc1)c1ccccc1Cl	13
COCCCNC(=O)CC(C)c1ccccc1 (centres undefined)	15
CC(=O)Nc1sc(C)c(C)c1C(=O)OCC(=O)N(CC(C)C)C1CCS(=O)(=O)C1 (centres undefined)	13
COc1ccc(-c2ccc(=O)n(CC(=O)Nc3ccc4c(c3)OCCO4)n2)cc1	4
CC(C)OP(=O)(OC(C)C)C(Nc1ccc(C(=O)O)cc1)c1ccccc1 (centres undefined)	12
O=C(CC(=O)N/N=C\c1cccc(Cl)c1Cl)NCc1ccccc1	13
COc1cc(NC(=O)c2ccc(C(C)(C)C)cc2)c(OC)cc1NC(=O)CN1CCCCC1	20
CC1CCc2c(sc3nc(CSc4ncn[nH]4)[nH]c(=O)c23)C1 (centres undefined)	17
CC(=O)/C=C(\C)N=Nc1c(O)[nH]c2ccccc12	11
CC(C)(C)NC(=O)/C(=C/c1ccccc1F)NC(=O)c1ccc([N+](=O)[O-])cc1	8
COc1ccc(C(=O)NC(=S)NNC(=O)c2cnccn2)cc1	27
Cc1[nH][nH]c(=O)c1N=Nc1ccccc1Cl	9
CC(=O)N1N=C(c2c(-c3ccccc3)c3cc(Br)ccc3[nH]c2=O)CC1c1ccco1 (centres undefined)	30
Cc1c(CNC(=O)c2c([N+](=O)[O-])cnn2C)cnn1C	5
COc1ccc(CCNC(=O)Cc2ccc([N+](=O)[O-])cc2)cc1OC	20
Clc1nc(CN2CCCCC2)nc2sc3c(c12)CCCC3	5
COC(=O)c1scc2c(=O)cc(C(F)(F)F)[nH]c12	20
Cc1cc(C)c(S(=O)(=O)Cc2ccc(Cl)cc2)c(=O)[nH]1	7
CCOC(=O)c1nc2sc3c(c2c(=O)n1C(C)C(=O)OCC)CCCC3 (centres undefined)	5
CC1=NN(C(=O)CSCc2ccccc2)C(O)(c2ccccc2)C1 (centres undefined)	15
O=C(NCCSCc1ccccc1)c1ccc(Cl)c(S(=O)(=O)N2CCOCC2)c1	13
NS(=O)(=O)c1ccc(N/N=C2/CCCCC2C2CCCCC2)c([N+](=O)[O-])c1 (centres undefined)	4
COC(=O)c1cccnc1-n1c(=O)c2cccnc2n(Cc2ccc([N+](=O)[O-])cc2)c1=O	14
Cc1cc(C)n(CC(O)COc2ccccc2[N+](=O)[O-])n1 (centres undefined)	15
O=C(NNC(=O)c1ccc[nH]1)Nc1cc(Cl)cc(Cl)c1	13
CNC(=O)c1ccccc1NC(=O)c1cccc(S(=O)(=O)N2CCCCC2)c1	12
COc1ccccc1NC(c1cccnc1)c1ccc2cccnc2c1O (centres undefined)	3

A stretch from the list above:
SMILES	Biofilm kill mix
CCOC(=O)c1ccc(NC(=O)c2nc[nH]c2C(=O)N[C@@H](CC(C)C)C(=O)OC(C)(C)C)cc1	13
O=[N+]([O-])c1cccc(/C=N/NS(=O)(=O)c2ccccc2)c1	3
COc1cc(/C=C2\SC(=S)N(NC(=O)c3cccnc3)C2=O)ccc1O	17
COc1ccc(C=Nc2ccc3[nH]ncc3c2)c(O)c1	24

Shown as labelled records: three of the compounds above.
SMILES: CC1=NN(C(=O)CSCc2ccccc2)C(O)(c2ccccc2)C1 (centres undefined)
  Biofilm kill mix: 15

SMILES: NS(=O)(=O)c1ccc(N/N=C2/CCCCC2C2CCCCC2)c([N+](=O)[O-])c1 (centres undefined)
  Biofilm kill mix: 4

SMILES: Cc1cc(C)c(S(=O)(=O)Cc2ccc(Cl)cc2)c(=O)[nH]1
  Biofilm kill mix: 7

Next results
SMILES	Biofilm kill mix
Cc1cccc(OCC(=O)Nc2nnn(C)n2)c1C	13
N=c1occ(C(=O)c2cc(F)ccc2O)cc1C(=O)NC1CCCCC1	11
Cc1cccc(C)c1NC(=O)COC(=O)C1Cc2ccccc2CN1C(=O)c1ccccc1 (centres undefined)	16
COC(=O)c1ccc(COC(=O)c2ccc(CO)cc2)o1	7
COCCNC(=S)N/N=C/c1ccc([N+](=O)[O-])cc1	24
COCCCNC(=S)Nc1ccc(OC(F)F)cc1C	10
COc1cccc(/C=N/NC(=O)c2[nH]c(C)c(C(=O)N/N=C/c3cccc(OC)c3)c2C)c1	7
Cc1cccc(-c2nnc(SCC#N)n2C)c1	19
CCOC(=O)NC(=O)CSc1nc2ccccc2[nH]1	-12
CCCCc1cc(=O)oc2cc(O)ccc12	11
CCCCN(Cc1ccccc1)C(=O)CCN1C(=O)C2C3C=CC(C3)C2C1=O (centres undefined)	8
Cc1nc(/C(N)=N/OC(=O)c2ccc(Cl)cc2)c(C(F)(F)F)o1	10
O=c1nc(N/N=C/c2ccco2)cn[nH]1	14
CCn1c(-c2nn(C)cc2Cl)n[nH]c1=S	15
CN(C)c1nnnn1Cc1ccc(Cl)cc1Cl	14
COc1ccc(NC(=S)NCc2cccn2C)cc1	0
Cn1c(O)c(/C=C2\C=NN=C2c2ccccc2)sc1=S	14
O=C(CSc1nnc(-c2ccco2)o1)c1ccc([N+](=O)[O-])cc1	5
O=C(O)CCCn1cc(NC(=O)COc2cc(F)ccc2[N+](=O)[O-])cn1	16
CC(=O)Nc1ccc(S(=O)(=O)NNC(=O)c2sc(=S)n(C)c2C)cc1	24
O=C(Cc1ccc(Cl)cc1)c1c[nH]c(C(=O)NCc2cccnc2)c1	-2
CCOC(=O)c1ccc(NC(=O)NCc2ccccc2)cc1	-12
CN(C)CCCNC(NC(=O)c1cccs1)C(Cl)(Cl)Cl (centres undefined)	0
Cc1ccc(Cn2nc(C)c(NC(=O)CSc3nc4c(c(C(F)(F)F)n3)CCc3ccccc3-4)c2C)cc1	10
O=C(COC(=O)c1cc([N+](=O)[O-])ccc1NCc1ccccc1)NCc1ccccc1Cl	6
O=C(NC1CC1)C1=C[C@H](c2c[nH]c3ccccc23)C[C@H](OCCCCO)O1	17
Cn1cccc1/C=C1\SC(=S)N(NC(=O)c2ccccc2O)C1=O	11
CC(C)(C)C(=O)Nc1ccccc1C(=O)OCC(=O)c1ccc2c(c1)OCCO2	10
Cc1ccccc1-c1nnn(CC(=O)Nc2cccc(S(N)(=O)=O)c2)n1	12
CCOC(=O)c1c(C)n(C)c2ccc(OC(=O)c3ccc(N4C(=O)CCC4=O)cc3)cc12	12
CCc1ccc2c(c1)C1(C(=O)N2)N2CCCC2C(C(=O)c2ccc3ccccc3c2)C12C(=O)Nc1ccccc12 (centres undefined)	17
CC1(CCc2ccccc2)NC(=O)N(CC(=O)N2CC(=O)Nc3ccccc32)C1=O (centres undefined)	19
CCOc1ccc(NC(=O)CC(NCc2ccccn2)C(=O)O)cc1 (centres undefined)	14
CN(C)C(=S)NC(=O)C(c1ccccc1)c1ccccc1	-6
COc1cc(CCC(=O)OCC(N)=O)cc(OC)c1OC	-4
CC(=O)c1c(C)[nH]c(C(=O)CSc2nc3ccccc3c(=O)n2CCCO)c1C	10
O=C1/C(=N\S(=O)(=O)c2cccs2)C([n+]2cccc(Cc3ccccc3)c2)=C([O-])c2ccccc21	19
C=CCNC(=O)Nc1ccc(F)c(Cl)c1	20
Cc1ccc(NC(=S)Nc2ccc3cn[nH]c3c2)c(C)c1	6
Cc1nc(NC(=O)CSc2ccc(-c3nc4ccccc4[nH]3)cn2)sc1C	19
Oc1csc(Cc2nc(-c3ccc(Br)cc3)cs2)n1	22
Cc1cc(C(=O)NNC(=O)Nc2cccc(C(F)(F)F)c2)no1	-7
O=C(Nc1cccnc1)c1ccc(Cl)cc1[N+](=O)[O-]	9
COc1nccnc1NS(=O)(=O)c1ccc(NC(=S)NC(=O)c2ccccc2F)cc1	22
O=C1CCN(C(=S)NCCc2ccccc2)CC1	14
Cc1ccc(C(=O)Nc2cccc(C(F)(F)F)c2)cc1NC(=O)c1csc(-c2ccncc2)n1	12
O=C(NCc1ccccc1)NCC12CC3CC(CC(C3)C1)C2	-8
Cc1ccc(-n2[nH]c(=O)c(-c3ccccn3)c2C)cc1	13
C=CCn1c(SCC#N)nc2sc(CC)cc2c1=O	7
O=C(NC(c1ccccc1)c1ccccc1)C1CCCC1	20

The list continues:
SMILES	Biofilm kill mix
COc1cc(NC(=S)Nc2ccc(N(C)C(C)=O)cc2)cc(OC)c1	21
Cc1ccc(S(=O)(=O)NNC(=S)Nc2cccc(C)c2C)cc1	15
Cc1csc(N(C(=O)CCNC(=O)c2ccc([N+](=O)[O-])cc2)c2ccccc2)n1	3
CCNc1nc(Oc2ccc(C#N)cc2)cc(C(F)(F)F)n1	5
COC(=O)c1ccc(OCC2c3cc(OC)c(OC)cc3CCN2C(C)=O)cc1 (centres undefined)	12
Cc1c(-c2ccccc2)oc2c(C(=O)N3CCN(c4ccccc4F)CC3)cccc2c1=O	8
C/C(CCC(C)C)=N\Nc1cc(C)c2ccccc2n1	12
Cn1c(=O)c2c(ncn2CC(=O)N/N=C/c2cn[nH]c2-c2ccc(F)cc2)n(C)c1=O	8
CCN1C(C)=C(C)S/C1=C1\SC(=S)N(N)C1=O	22

Screens from PubChem.

This is a subset; the hit share may differ from the screen's.
